H5N1 antiviral: antiviral screen in MDCK cells, H5N1 avian flu; cytopathic effect, luminescence, 72 h; active compounds read high; no value below 0 was filed and about half of the inactive calls have no number; reference of the scale not given here; inhibition, % at 50 µM; actives 0.07% (n = 96,000); AID 740; in the data active = inhibition above about 25%
The depositor's hits bear a star; i = inactive; & = joins results of further samples.

| SMILES | H5N1 antiviral |
| --- | --- |
| CCC1CCCCN1c1ccc([N+](=O)[O-])cc1/C=N/NC(=O)Cn1c2ccccc2c(=O)c2ccccc21 (stereo unspecified) | 0.6 |
| Cc1nnc(SCC(=O)N2CCN(S(=O)(=O)c3ccc(Cl)cc3)CC2)[nH]c1=O | 1.9 |
| COc1ccc(Oc2cc(NC(=O)c3nn(C)cc3[N+](=O)[O-])cc([N+](=O)[O-])c2)cc1 | i |
| CC1Cc2ccccc2N1C(=O)c1ccc2c(c1)nnn2C (stereo unspecified) | i |
| Cc1cc(C)nc(SCc2nnc(SCC(=O)Nc3cc(C(F)(F)F)ccc3Cl)o2)n1 | 1.7 |
| CCOc1ccccc1NC(=O)c1ccccc1-c1nc(-c2ccccc2)no1 | i |
| COc1ccc(CNC(=O)CSc2ncn[nH]2)cc1 | 1.1 |
| CCCCn1nc2cc(C(=O)NCc3ccc(OC(F)(F)F)cc3)ccc2c1OC | 0.4 |
| CCOC(=O)C1Cc2c([nH]c3ccccc23)C(C)N1 (stereo unspecified) | i |
| O=C(NCC(=O)N(Cc1cccs1)C(C(=O)NC1CCCC1)c1ccncc1)c1ccco1 (stereo unspecified) | 0.7 |
| Cc1sc(NC(=O)c2cccs2)nc1-c1ccccc1 | i |
| COc1ccc(-c2cc(C(=O)NCc3ccccc3)no2)cc1OC | 0.9 |
| CCOc1ccc(-c2nc(C#N)c(N3CCN(C)CC3)o2)cc1 | 0.6 |
| CCOc1ccc(-n2c(CC)nc3ccccc3c2=O)cc1 | 1.1 |
| CCOC(=O)c1ccc(-n2c(C)nc3c(cnn3-c3ccccc3C)c2=O)cc1 | 0.4 |
| Cn1c(NCC(O)c2ccccc2)nc2c1c(=O)n(Cc1ccc(Cl)cc1)c(=O)n2C (stereo unspecified) | i |
| O=C(c1cccc(COc2ccc(Cl)cc2Cl)c1)N1CCN(c2ccccn2)CC1 | i |
| CCCCCOc1ccc(C(=O)N(Cc2ccco2)C2CCS(=O)(=O)C2)cc1 (stereo unspecified) | 1.9 |
| Nc1cc(C(=O)O)ccc1Nc1ccc(F)c(F)c1 | 1.1 |
| COc1ccc(Cl)c(NC(=O)Cn2nnc(-c3ccccc3N)n2)c1 | i |
| CCN1CCN(C(=O)c2cn(CCOC)c(=O)c3c2c2ccccc2n3C)CC1 | 1.4 |
| COc1ccc(CCn2c(C)c(C(C)=O)c3cc(OC(=O)c4ccco4)ccc32)cc1OC | 1.7 |
| COc1cc(OC)c(NC(=O)c2ccco2)cc1Cl | 0.2 |
| Cc1cc(=O)oc2ccc(OCC(=O)N3CCc4ccccc43)cc12 | 0.3 |
| Cc1ccc(-c2nc(-c3cccnc3)no2)c(C)c1 | 0.4 |
| CCOC(=O)C1CCN(S(=O)(=O)c2ccc(-c3nc4ccccc4s3)s2)CC1 | 0.2 |
| COc1ccc(C2CC(c3ccccc3)Nc3ncnn32)cc1 (stereo unspecified) | i |
| Cc1cc(C)cc(OC(=O)CS(=O)c2ccc(C(F)(F)F)cc2[N+](=O)[O-])c1 (stereo unspecified) | i |
| Cc1ccc(-n2nc(-c3cccnc3)cc2C(=O)N2CCOCC2)c(C)c1 | 1.2 |
| CN(C)S(=O)(=O)c1ccc(NC(=O)N2CCN(c3cccc(C(F)(F)F)c3)CC2)cc1 | i |
| O=C(c1ccc(Cl)c(Cl)c1)N1CCOCC1 | i |
| Cc1ccc(C)c(Cn2c(=O)n(CCC(=O)NCc3ccco3)c(=O)c3ccccc32)c1 | 1.4 |
| Cc1csc(SCCn2c(N3CCCC3)nc3c2c(=O)[nH]c(=O)n3C)n1 | 4.0 |
| Cc1cc(S(=O)(=O)NCC(C)C)ccc1OCC(=O)N1CCOCC1 | 1.5 |
| CCOC(=O)CSC1=Nc2ccccc2C2=NC(CC(=O)NCc3ccccc3)C(=O)N12 (stereo unspecified) | 1.6 |
| CCc1cc2c(=O)c(-c3ccc4c(c3)OCCO4)coc2cc1OC(=O)c1ccco1 | 0.5 |
| COc1ccc(-c2nc(CS(=O)CC(=O)N3CCCC3)c(C)o2)cc1 (stereo unspecified) | 2.5 |
| O=C(NCc1ccccc1)c1ccc(OC2CSC2)cc1 | 0.1 |
| COc1cccc(NC(=O)Cn2nnc(-c3ccccc3N)n2)c1 | i |
| CN1CCN(S(=O)(=O)c2ccc(NC(=O)C(C)(C)C)cc2)CC1 | i |
| COC(=O)c1sccc1NC(=O)CSc1nnnn1-c1ccccc1C | 7.6 |
| CCCS(=O)(=O)c1nc(S(=O)(=O)c2ccc(C)cc2)c(NCCCN2CCOCC2)s1 | i |
| Cc1sc(N/N=C/c2cccnc2)nc1-c1ccc(Cl)cc1 | i |
| COc1ccc(-c2nnc(SCC(=O)Nc3cccc(Cl)c3)o2)cc1 | 0.3 |
| N#CC1C(=O)NC(N2CCN(c3ccccc3)CC2)=NC12CCCCC2 (stereo unspecified) | 0.0 |
| CCOc1ccccc1-n1c(SCC(=O)NC(C)CC)nnc1-c1ccoc1C (stereo unspecified) | 0.8 |
| CC1=C(C(=O)O)N2C(=O)C(NC(=O)c3ccn(C)n3)C2SC1 (stereo unspecified) | i |
| COc1ccccc1OCCn1c(C(C)O)nc2ccccc21 (stereo unspecified) | 2.2 |
| Clc1ccc(CSc2nnc(-c3ccncc3)o2)cc1 | 1.4 |
| COC(=O)c1ccc(OC(=O)c2ccco2)cc1 | i |

Brought forward from above: three entries, followed by the next part.
| SMILES | H5N1 antiviral |
| --- | --- |
| COc1ccccc1OCCn1c(C(C)O)nc2ccccc21 (stereo unspecified) | 2.2 |
| Clc1ccc(CSc2nnc(-c3ccncc3)o2)cc1 | 1.4 |
| COC(=O)c1ccc(OC(=O)c2ccco2)cc1 | i |
| COc1cc(C2NC(=O)NC(C)=C2C(=O)OC(C)(C)C)ccc1OCC(=O)O (stereo unspecified) | 0.2 |
| CCn1nnc(NC(=O)c2cc3ccccc3o2)n1 | i |
| O=S1(=O)C=C(SCc2ccccc2)Nc2ccccc21 | 0.3 |
| CCCCSc1nnc([C@@H]2CCCN2C(=O)OC(C)(C)C)o1 | 1.9 |
| O=C(O)CCC(=O)Nc1ccc(OCC(=O)O)cc1 | 0.2 |
| O=C(CCc1nc2ccccc2[nH]1)Nc1ccccc1 | 1.3 |
| Cc1cc(C)n(CC(=O)n2c3ccccc3c3ccccc32)n1 | 0.4 |
| CS(=O)(=O)Nc1cccc(C2=NN(S(=O)(=O)c3ccccc3)C(c3cccs3)C2)c1 (stereo unspecified) | 3.1 |
| COC(=O)c1cc(=O)n(C2CC2)c(=NC2CC2)s1 | 1.3 |
| CCCCNC(=O)c1ccc(CS(=O)(=O)c2ccc(OC)cc2)o1 | 0.9 |
| COc1ccc(-c2cc3ccccc3oc2=O)cc1NC(=O)c1cccnc1 | 3.1 |
| Cc1cc(NC(=O)c2cccc(S(=O)(=O)N3CCOCC3)c2)c2ccccc2n1 | i |
| COc1ccc2cc(CCNC(=O)c3ccc(Br)o3)c(=O)[nH]c2c1 | 3.5 |
| Cc1ccc(C(=O)CC2(O)C(=O)Nc3ccccc32)s1 (stereo unspecified) | i |
| O=C1c2ccccc2NC2CCCCC12 (stereo unspecified) | 0.8 |
| O=C(Cn1c(-c2ccccc2)noc1=O)Nc1ccc(N2CCCCCC2)cc1 | i |
| COc1ccccc1NC(=S)NC(=O)C(C)C | 12 |
| O=C(c1cnsn1)N1CCN(c2ccccc2)CC1 | i |
| Cc1ccc(-n2c(C)nc3c(cnn3-c3ccc(C)c(C)c3)c2=O)cc1C | 2.7 |
| Cc1ccc(C2C(C#N)=C(N)SC(N)=C2C#N)cc1 | i |
| COC(=O)c1[nH]c2cc(C)ccc2c1NC(=O)CN1CCc2cc(OC)c(OC)cc2C1 | i |
| CC(C)Oc1ccc(C(=O)N(CN2CCCC2=O)c2ccc(F)cc2)cc1 | 0.5 |
| O=C(/C=N/O)Nc1ccccc1C(=O)O | 0.1 |
| Oc1ccccc1-c1nc2cnccn2c1Nc1ccc2c(c1)OCCO2 | 0.4 |
| Cc1cc2n(n1)C(c1cccs1)Nc1ccccc1-2 (stereo unspecified) | i |
| CC(=O)N1CCc2cc(S(=O)(=O)N3CCOCC3)ccc21 | 1.6 |
| CCOc1ccc(C(O)C(CN2CCOCC2)c2ccccc2)cc1 (stereo unspecified) | 1.0 |
| CCS(=O)(=O)Nc1ccc(C(=O)CC2(O)C(=O)Nc3ccc(Br)cc32)cc1 (stereo unspecified) | i |
| CCOC(=O)c1cccnc1SCC(=O)N(C)c1ccccc1 | i |
| COc1ccc(CCn2c(C)cc(C(=O)CSc3nnnn3C)c2C)cc1 | 0.1 |
| Cc1ccc(-n2c(Cc3cccn3C)nnc2SCC(N)=O)cc1 | 0.7 |
| COc1ccc(CC(=O)Nc2ccc(N3CCN(c4ccc(OC)cc4)CC3)c(C#N)c2)cc1 | i |
| Cc1nnc(SCc2cc(=O)n3[nH]cnc3n2)s1 | 2.4 |
| CN(CC(=O)Nc1nccs1)S(=O)(=O)c1ccc(F)cc1 | 0.7 |
| O=C(NC(Cc1c[nH]c2ccccc12)c1nnc2n1CCCCC2)c1ccccc1Cl (stereo unspecified) | 0.0 |
| COc1ccc(C(=O)NNc2ccccc2)cc1OC | 0.3 |
| Cc1ccc(NC(=O)c2cc(N3C(=O)C4CC=CCC4C3=O)ccc2N2CCCCC2)cc1 (stereo unspecified) | i |
| COc1ccc(N=C2S/C(=C\c3cc(C)n(C)c3C)C(=O)N2C)cc1 | i |
| C=CCSc1nnc2nc3c(nn12)c1cc(C)ccc1n3CC=C | i |
| Cc1cc(C)cc(NS(=O)(=O)c2ccc3[nH]cc(C(=O)NCc4ccco4)c(=O)c3c2)c1 | 0.9 |
| COc1cccc(NC(=O)Cn2c(-c3cncs3)nc3ccccc32)c1 | 0.1 |
| O=C(NNC(=O)c1ccco1)c1cccc([N+](=O)[O-])c1 | 2.7 |
| Cc1ccc(Nc2nc(CSc3nnnn3C)cs2)cc1 | 3.3 |
| O=C(NCc1cccs1)c1cc2c(s1)-c1ccccc1OC2 | i |
| COc1ccc(NC(=O)CCc2nc(-c3ccccc3F)no2)cc1 | i |
| CCN(CC)C(=O)CSc1ncnc2c1nnn2-c1ccc(F)cc1 | 2.7 |
| COc1ccc(S(=O)(=O)Cc2ccc(C(=O)N3CCN(Cc4ccccc4)CC3)o2)cc1 | 0.1 |
| O=C(CCC(=O)N1CCN(S(=O)(=O)c2ccccc2)CC1)NC1CCCc2ccccc21 (stereo unspecified) | 0.2 |
| O=C(NCc1nnc2n1CCCCC2)c1ccc(Cl)cc1Cl | 0.3 |
| Cc1c2cn[nH]c(=O)c2c(C)n1Cc1ccc(F)cc1 | i |

Next results:
| SMILES | H5N1 antiviral |
| --- | --- |
| Cn1c(=O)n(C)c2cc(S(=O)(=O)NCCOCCO)ccc21 | 0.4 |
| O=C(CCn1c(SCC(=O)NCc2ccco2)nc2ccccc2c1=O)NCCc1ccccc1 | i |
| Cc1oc2nc(SCC(=O)NCc3cccnc3)nc(N)c2c1C | 1.9 |
| CC(=O)NC(=O)NC(C)Cc1ccccc1 (stereo unspecified) | 0.7 |
| O=[N+]([O-])c1c(NCCCO)cc(Sc2nc3ccccc3s2)c2nonc12 | 5.3 |
| COC(=O)/C=C(\C)NC(=O)c1cccs1 | 2.0 |
| S=C(Nc1ccccc1)Nc1ccc(Cl)cc1Cl | 0.9 |
| CCCNC(=O)CN(c1ccc(F)c(Cl)c1)S(C)(=O)=O | 0.5 |
| Cc1nn(-c2ccccc2)c2c1C(c1ccc3c(c1)OCO3)SCC(=O)N2 (stereo unspecified) | i |
| N=c1sccn1CC(=O)Nc1ccc(S(=O)(=O)N2CCOCC2)cc1 | i |

Individual results from the entries so far.
Reading for `Cc1oc2nc(SCC(=O)NCc3cccnc3)nc(N)c2c1C` under H5N1 antiviral: 1.9
Reading for `O=[N+]([O-])c1c(NCCCO)cc(Sc2nc3ccccc3s2)c2nonc12` under H5N1 antiviral: 5.3
Reading for `Cn1c(=O)n(C)c2cc(S(=O)(=O)NCCOCCO)ccc21` under H5N1 antiviral: 0.4
Reading for `CCCNC(=O)CN(c1ccc(F)c(Cl)c1)S(C)(=O)=O` under H5N1 antiviral: 0.5
Reading for `S=C(Nc1ccccc1)Nc1ccc(Cl)cc1Cl` under H5N1 antiviral: 0.9

Going on with the list:
| SMILES | H5N1 antiviral |
| --- | --- |
| CCCCCCOC(=O)Sc1nc2ccccc2o1 | 1.7 |
| O=C(C1=C(O)C(=O)N(c2ncccn2)C1c1cccc(Cl)c1)c1ccco1 (stereo unspecified) | i |
| CCOC(=O)CC1C(=O)NCCN1C(=O)c1cc2c(=O)n3ccccc3nc2s1 (stereo unspecified) | 2.5 |
| CCN(CC)c1ccc(-n2c(C)c(C(C)=O)c(C(C)=O)c2C)cc1 | 0.9 |
| CCOC(=O)C1=C(Cn2cnc3ccccc32)NC(=O)NC1c1ccc(OC)cc1 (stereo unspecified) | i |
| O=C(Oc1ccc(N(Cc2cccs2)C2=NS(=O)(=O)c3ccccc32)cc1)c1ccccc1 | 3.0 |
| CCOc1ccc(Cl)cc1CSc1n[nH]c(CC)n1 | 0.4 |
| C=CCOc1c(Br)cc(CNc2ccc(NC(=O)C(C)C)c(OC)c2)cc1OC | i |
| COc1ccccc1NC(=O)CSc1nc(O)cc(=O)n1-c1ccccc1OC | 1.1 |
| COc1ccc2ccccc2c1/C=N/O | i |
| CCOc1c(C)cc(-c2ncccc2O)cc1C | 4.0&0.1 |
| CCC(=O)c1ccccc1OCCCn1cncn1 | 0.4 |
| CN(C)C(=O)NC1CCCCCCCCCCC1 | i |
| CSc1nc(NC(C)(C)C)nc(Oc2ccc(=O)[nH]n2)n1 | 0.8 |
| O=P1(Nc2ccc(F)cc2)COc2ccccc2OC1 | i |
| Cc1cccc(NC(=O)c2cnc3sccn3c2=O)c1C | i |
| Cc1nc2c(o1)CCc1ccccc1C2O (stereo unspecified) | 0.2 |
| Cc1ccc(S(=O)(=O)NNC(=O)C(=O)NNc2ccccn2)cc1 | 3.2 |
| Cc1cccc(C(=O)NC(=S)Nc2ccc(Cc3ccncc3)cc2)c1 | i |
| O=C1CNC(=O)/C1=C\N1CCN(C(c2ccccc2)c2ccccc2)CC1 | i |
| C#CCNc1cc(C)nc2ncnn12 | 0.6 |
| CC1(C)C(c2ccccc2)=[N+]([O-])CN1O | i |
| CC(=O)COc1ccc2c(C)c(C)c(=O)oc2c1 | i |
| CCOC(=O)CCc1n[nH]c(=O)[nH]c1=O | i |
| O=C(Cn1cc2c(n1)CCCC2)NCCCN1CCN(Cc2ccccc2)CC1 | 0.2 |

Assay outcomes deposited in PubChem by SRMLSC.

Only part of the results is shown (hit frequency here may not be typical).
